Mtb growth – M. tuberculosis H37Rv growth inhibitors, H37Rv strain (AID 1626) | inhibition, % at 10 µM; hits with a dose series show IC50 in µM | hit rate 0.95% among 220,000 | M. tuberculosis H37Rv growth inhibition; higher % means a stronger effect;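 active means confirmed in a dose series; inconclusive means inhibition above 80% but not taken into the dose series; inactive means below 80% or under 30% at every dose of the series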;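 further: bacteria incubated seven days before Alamar blue readout; 0% = bacteria only wells and 100% = bacteria with antibiotic wells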
Arbovirus inh – antivirals against arbovirus infection; arbovirus infection cell-based antiviral screen; inhibition, % at 10 µM; hit rate 0.37% among 200,000; AID 1251;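 active means inhibition from about 30%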;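 further: bluetongue infection of BSR cells; cell survival read as ATP light after 72 h; 0% = infected wells without compound and 100% = uninfected wells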
Mtb bLac sens – beta-lactam sensitization of Mtb H37Rv. AID 434955. hit rate 0.27% among 330,000. inhibition, % at 25 µM. M. tuberculosis H37Rv growth with meropenem, percent inhibition; hits of this screen are not shown here;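 active means about 74% or more and at least 40 points above the plate without the antibiotic, then above 30% in a dose series; inconclusive means first-round hits that could not be retested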;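 further: growth measured after seven days incubation then overnight dye step; 0% = bacteria only wells and 100% = bacteria with antibiotic; twin plates without the antibiotic show which effects depend on it; some results filed as inactive read as strong as hits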
YopH inh – inhibitors of Yersinia enterocolitica YopH tyrosine phosphatase | fluorescence Ex485/Em525 | inhibition, %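 (about 10 µM by stock and volumes)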 | hit rate 0.16% among 140,000;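 active means inhibition of 50% or more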;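 further: controls were vehicle for no effect and minimum signal wells for full effect; inactives centre near -20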
RecA splice inh – inhibitors of M. tuberculosis RecA intein splicing | P9WHJ3 | cell-free RecA intein splicing, fluorescence | inhibition, %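 (about 9 µM by stock and volumes)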 | AID 2221 | hit rate 0.75% among 290,000; in the data active means inhibition above about 30%; inconclusive means no clear call, values can overlap the other calls;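 further: 0% = vehicle wells and 100% = reference inhibitor control wells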
Target sequence (P9WHJ3 whole entry, looked up, canonical isoform): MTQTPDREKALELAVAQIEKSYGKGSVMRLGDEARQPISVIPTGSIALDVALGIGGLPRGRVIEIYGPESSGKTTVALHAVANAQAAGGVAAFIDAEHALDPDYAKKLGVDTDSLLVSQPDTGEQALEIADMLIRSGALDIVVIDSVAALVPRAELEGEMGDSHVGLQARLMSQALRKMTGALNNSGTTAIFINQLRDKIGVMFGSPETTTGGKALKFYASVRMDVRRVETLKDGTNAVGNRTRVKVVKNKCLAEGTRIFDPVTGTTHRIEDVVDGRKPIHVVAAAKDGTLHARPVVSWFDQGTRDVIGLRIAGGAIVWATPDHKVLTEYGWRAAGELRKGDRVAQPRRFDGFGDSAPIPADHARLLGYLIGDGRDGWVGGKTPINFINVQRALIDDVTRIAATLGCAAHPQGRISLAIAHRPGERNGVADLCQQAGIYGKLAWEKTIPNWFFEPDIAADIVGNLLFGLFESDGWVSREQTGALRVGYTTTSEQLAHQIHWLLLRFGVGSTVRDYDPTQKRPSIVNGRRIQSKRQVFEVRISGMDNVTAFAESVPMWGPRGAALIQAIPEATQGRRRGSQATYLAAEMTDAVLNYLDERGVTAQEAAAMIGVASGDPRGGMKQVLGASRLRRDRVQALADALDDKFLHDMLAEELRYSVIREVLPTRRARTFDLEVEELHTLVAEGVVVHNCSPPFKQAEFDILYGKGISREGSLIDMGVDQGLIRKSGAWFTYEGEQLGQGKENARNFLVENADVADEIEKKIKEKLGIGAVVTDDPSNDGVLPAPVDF
Arbovirus inh repeat – also measured in Arbovirus inh; calls as there; inhibition, %; measured here: 10K subset replicate screen; many hits read low in the repeat;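 first of two repeat runs on a subset; 0% = infected and 100% = uninfected wells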
Numbers without * were called inactive; ? = inconclusive; . = not tested or not shown. Only part of the results is shown; rates above refer to the full screens.

SMILES	Mtb growth	Arbovirus inh	Mtb bLac sens	YopH inh	RecA splice inh	others
Cc1ccc(S(=O)(=O)NCCN2CCOCC2)c(C)c1C	-2%	0	0	.	0.0
CCN(CC)CCCNC(=O)c1ccc2c3n(nc2c1)-c1ccc(Cl)cc1CO3	.	.	-1	.	0.4
C=CCc1cccc2cc(C(=O)NCc3cccnc3)c(=O)oc12	3%	2	3	-25	1.7
O=C(N/C(=C/c1ccc2c(c1)OCO2)C(=O)N1CCOCC1)c1cccs1	-14%	7	-7	-7	2.2
CCCn1c(C(=O)c2ccccc2OC)nc2ccccc21	2%	-2	5	.	1.5
CC1=CC(C)(C)N(C(=O)CN2C(=O)c3ccccc3C2=O)c2ccccc21	4%	-8	11	-47	8.5
CNC(=S)N(CCc1c(C)[nH]c2ccccc12)Cc1ccco1	?	7	88	.	1.5
CCOC(=O)c1cc2c(ccn2-c2ccc(F)cc2)n1CC(=O)N1CCN(C(=O)c2ccco2)CC1	-2%	2	4	-13	1.6
Cc1cc(C)nc(-n2nc(C)cc2NC(=O)c2ccc(S(=O)(=O)N3CCOCC3)cc2)n1	-11%	.	3	.	.
Cc1cc(O)c(C)c(O)c1/C=N/NC(=O)c1cccnc1	.	.	8	.	-0.6
O=C(CCNC(=O)c1ccccc1Cl)NC1=NCCS1	0%	12	-6	.	10
Fc1ccc(C2=CSC3=NCCN23)cc1	-6%	-2	0	.	-0.8
CCOC(=O)c1c(NC(=S)Nc2ccccc2)sc2c1CCN(CCc1ccccc1)C2	.	13	1	-16	.
C[C@@H](O)c1nc2ccccc2n1N	-1%	2	0	-15	-0.1
CC(/C=C1\SC(=O)N(CC(=O)Nc2cccc(O)c2)C1=O)=C\c1ccccc1	-1%	-44	-11	-29	11
N#Cc1ccc(C23CC4(C2)[C@H](CN(P(=O)(c2ccccc2)c2ccccc2)[C@@H]4c2ccccc2)C3c2ccc(Cl)nc2)cc1 (stereo not given in full)	?	.	24	.	15
Cc1ccc(-c2cc(C(=O)Nc3cc(C)on3)c3ccccc3n2)cc1	6%	-7	-4	-6	1.0
CCCCOc1ccc(S(=O)(=O)Nc2cc(OC)ccc2OC)cc1	-8%	15	2	10	.	Arbovirus inh repeat=15
O=[N+]([O-])c1cccc(-n2cccc2/C=N/Nc2nc(N3CCCCC3)nc(N3CCCCC3)n2)c1	11%	15	14	.	5.9
CN(CC(=O)NCCN1CCN(Cc2ccccc2)CC1)S(=O)(=O)c1cccc2nsnc12	-10%	-8	10	-39	1.7
O=C(O)c1ccc(NC(=O)C2C3CCC(O3)C2C(=O)O)cc1 (stereo not given)	.	.	5	.	-1.2
CCCCc1cc(=O)oc2c(CN(CC)CC)c(O)c(Cl)cc12	2%	-6	0	-19	-133
COCCn1c(SCC(=O)NC(=O)NC(C)C)nc2ccccc21	1%	-1	-8	-9	.
CCCCCn1c(Sc2nc3ccccc3s2)nc2c1c(=O)[nH]c(=O)n2C	-2%	-9	15	-29	0.4
Cc1cc(-c2csc(NC(=O)c3ccc(C#N)cc3)n2)c(C)n1Cc1ccccc1	-1%	2	7	-9	-1.4
CN(CCO)C(=O)c1cccc2c1-c1ccccc1C2=O	-8%	2	-8	-28	1.0
CC(C)CCCNc1nc(N2CCOCC2)nc(N2CCOCC2)n1	11%	-2	6	-20	0.1
Cc1nc(CCNC(=O)Cc2ccc(Cl)cc2)cs1	7%	9	1	-46	2.5
CC(C)Oc1ccc(C(CC(=O)O)Cc2ccccc2)cc1 (stereo not given)	.	.	6	.	-0.9
CN1C(=O)C2(C(C#N)=C(N)N(c3cc(Cl)cc(Cl)c3)C3=C2C(=O)CCC3)c2ccccc21 (stereo not given)	0%	16	-10	0	1.2
Cc1nc2ccccc2c(=O)n1C1CCCCCC1	8%	4	-2	-53	-1.5
NS(=O)(=O)OCCCc1ccc(C(F)(F)F)cc1	.	.	28	.	0.2
CC(C)(C)c1ccc(S(=O)(=O)NCCOCC(F)(F)C(F)F)cc1	38%	4	2	-2	-2.9
O=C(CSc1nc2ccccc2[nH]1)c1ccc(Cl)s1	-8%	-4	-10	-14	8.2
O=c1c(-c2ccccc2)nnc2sc(COc3ccc(Br)cc3)nn12	.	.	6	.	-3.5
CC1CC(C)CN(S(=O)(=O)c2ccc(C(=O)NCCCn3ccnc3)cc2)C1 (stereo not given)	-14%	-17	4	-42	0.7
O=C(/C=C/c1ccc(-c2ccccc2)o1)c1ccccc1	13%	26	57	-39	6.2
CNc1nc2c(c(=O)n(C)c(=O)n2C)n1CCCc1ccccc1	.	.	-3	.	0.5
C=CCN1C(=O)C(O)(CC(=O)c2ccc(Cl)cc2)c2ccccc21 (stereo not given)	-6%	-5	12	-22	1.7
CN1CCC(N(C)CC(=O)Nc2cccc(Oc3ccccc3)c2)CC1	-5%	-14	-7	-1	-2.0
O=C(CSc1nnc(Nc2ccccc2)s1)NCc1ccco1	-4%	2	2	-51	-1.0
CN(C)C(CNc1ncnc2sc3c(c12)CCCCC3)c1ccco1 (stereo not given)	3%	-12	-2	.	2.7
CCC(COC)NC(=O)CCc1nnc(Cc2cccc(C(F)(F)F)c2)o1 (stereo not given)	-7%	-2	-4	.	-1.4
CC(=O)c1ccc(N2CCN(CC(=O)Nc3ccc4c(c3)OCCO4)CC2)cc1	.	.	-4	.	-0.2
C=CCOC(=O)C1=C[C@H](C(C)(C)C)[C@@H](CCCO)[C@H](OCC)O1	3%	.	6	.	0.2
CCC(=O)c1cn(Cc2ccc(C#N)cc2)c2ccccc12	9%	-6	-25	-9	-0.1
O=C(NNC(=S)NC1CCCCC1)c1ccccc1O	5%	5	58	.	16
N#CC1=C(N)Nc2nc3ccccc3n2C1c1ccc(Cl)cc1 (stereo not given)	2%	0	-2	-13	-0.7
COC(=O)C1Cc2c([nH]c3ccccc23)C(C(C)C)N1 (stereo not given)	.	.	-6	.	-4.5
Cc1cc(C(=O)N(C)CC(=O)Nc2ccccc2C(F)(F)F)c(C)o1	-1%	7	-23	-20	5.5
Cc1ccc(-n2nc3c(=O)n(CCCC(=O)NCc4cccc(F)c4)nc(C)c3c2C)cc1	.	.	1	.	1.9
CCN1C(=O)[C@@H]2[C@@H](c3ccc(-c4ccc(C(C)=O)cc4)c(OC)c3)N3CCCC[C@@]3(C(=O)OC)[C@@H]2C1=O	.	.	-17	.	-2.3
CN(C)CCNC(=S)Nc1cccc(Cl)c1	1%	10	9	-47	5.2
CN(CCO)c1nc2c(c(=O)n(Cc3ccc(Cl)cc3)c(=O)n2C)n1C	.	.	-5	.	-4.8
Cc1ccc(-c2c[n+]3c(n2-c2ccccc2)CCC3)cc1	3%	.	-10	.	0.3
COc1cc(CC(=O)N/N=C/c2ccc([N+](=O)[O-])cc2)c([N+](=O)[O-])cc1OC	2%	-3	5	-17	-1.3
Oc1cc2c(cc1CN1CCN(c3ccccc3F)CC1)OCO2	.	.	-7	.	-6.0
CC1CCc2nc3sc4c(c3c(N)c2C1)CCCC4 (stereo not given)	?	10	92	-25	0.3
CCn1cc(C(=O)N2CCN(c3ccccn3)CC2)c(=O)c2cc(S(=O)(=O)N3CCC(C)CC3)ccc21	-2%	22	0	.	.
COc1cccc(CCc2nc3ccccc3c(=O)n2N)c1	.	.	0	.	1.8

24 compounds out of the list, sorted by molar mass, rising.
SMILES	Mtb growth	Arbovirus inh	Mtb bLac sens	YopH inh	RecA splice inh	others
CN(C)CCNC(=S)Nc1cccc(Cl)c1	1%	10	9	-47	5.2
COC(=O)C1Cc2c([nH]c3ccccc23)C(C(C)C)N1 (stereo not given)	.	.	-6	.	-4.5
O=C(/C=C/c1ccc(-c2ccccc2)o1)c1ccccc1	13%	26	57	-39	6.2
Cc1ccc(-c2c[n+]3c(n2-c2ccccc2)CCC3)cc1	3%	.	-10	.	0.3
O=C(NNC(=S)NC1CCCCC1)c1ccccc1O	5%	5	58	.	16
COc1cccc(CCc2nc3ccccc3c(=O)n2N)c1	.	.	0	.	1.8
O=C(CSc1nc2ccccc2[nH]1)c1ccc(Cl)s1	-8%	-4	-10	-14	8.2
N#CC1=C(N)Nc2nc3ccccc3n2C1c1ccc(Cl)cc1 (stereo not given)	2%	0	-2	-13	-0.7
C=CCOC(=O)C1=C[C@H](C(C)(C)C)[C@@H](CCCO)[C@H](OCC)O1	3%	.	6	.	0.2
CNc1nc2c(c(=O)n(C)c(=O)n2C)n1CCCc1ccccc1	.	.	-3	.	0.5
Oc1cc2c(cc1CN1CCN(c3ccccc3F)CC1)OCO2	.	.	-7	.	-6.0
C=CCN1C(=O)C(O)(CC(=O)c2ccc(Cl)cc2)c2ccccc21 (stereo not given)	-6%	-5	12	-22	1.7
O=C(CSc1nnc(Nc2ccccc2)s1)NCc1ccco1	-4%	2	2	-51	-1.0
CN1CCC(N(C)CC(=O)Nc2cccc(Oc3ccccc3)c2)CC1	-5%	-14	-7	-1	-2.0
Cc1cc(C(=O)N(C)CC(=O)Nc2ccccc2C(F)(F)F)c(C)o1	-1%	7	-23	-20	5.5
CN(C)C(CNc1ncnc2sc3c(c12)CCCCC3)c1ccco1 (stereo not given)	3%	-12	-2	.	2.7
CN(CCO)c1nc2c(c(=O)n(Cc3ccc(Cl)cc3)c(=O)n2C)n1C	.	.	-5	.	-4.8
COc1cc(CC(=O)N/N=C/c2ccc([N+](=O)[O-])cc2)c([N+](=O)[O-])cc1OC	2%	-3	5	-17	-1.3
CC(=O)c1ccc(N2CCN(CC(=O)Nc3ccc4c(c3)OCCO4)CC2)cc1	.	.	-4	.	-0.2
CC1CC(C)CN(S(=O)(=O)c2ccc(C(=O)NCCCn3ccnc3)cc2)C1 (stereo not given)	-14%	-17	4	-42	0.7
O=c1c(-c2ccccc2)nnc2sc(COc3ccc(Br)cc3)nn12	.	.	6	.	-3.5
Cc1ccc(-n2nc3c(=O)n(CCCC(=O)NCc4cccc(F)c4)nc(C)c3c2C)cc1	.	.	1	.	1.9
CCN1C(=O)[C@@H]2[C@@H](c3ccc(-c4ccc(C(C)=O)cc4)c(OC)c3)N3CCCC[C@@]3(C(=O)OC)[C@@H]2C1=O	.	.	-17	.	-2.3
CCn1cc(C(=O)N2CCN(c3ccccn3)CC2)c(=O)c2cc(S(=O)(=O)N3CCC(C)CC3)ccc21	-2%	22	0	.	.

Additional structures follow.
SMILES	Mtb growth	Arbovirus inh	Mtb bLac sens	YopH inh	RecA splice inh	others
COc1ccc(N2CCN(C(=O)CC34CC5CC(CC(C5)C3)C4)CC2)c([N+](=O)[O-])c1	19%	-5	7	-21	2.9
Cc1cc(C(=O)COc2ncnc3sccc23)c(C)n1C	-4%	6	7	-8	15
CC(=O)Nc1ccnc(-c2cccnc2)n1	-1%	13	-10	-37	-4.7
O=C(c1cc2cc(Cl)ccc2[nH]1)N1CCc2ccccc2C1	.	.	-7	.	-2.4
CCOc1ncccc1C(=O)Nc1cc(S(=O)(=O)N2CCOCC2)ccc1N1CCCC1	1%	-7	2	.	1.5
CCC1(C)CC2(CCCN(CCC(=O)c3ccccc3)C2)CCO1 (stereo not given)	1%	2	87	.	4.6
CC[n+]1c(/C=C/c2cc([N+](=O)[O-])ccc2O)ccc2ccccc21	.	.	13	.	1.3
CC(=O)c1ccc(NC(=S)N2CCCC(C(F)(F)F)C2)cc1 (stereo not given)	7%	1	-6	.	0.2
CCC1SC(=Nc2cccc(C)c2)NC1=O (stereo not given)	.	.	2	.	-4.3
CCOc1cccc(CNC2CN3CCC2CC3)c1 (stereo not given)	1%	10	-7	11	-0.7
COc1ccccc1NS(=O)(=O)c1cccc(C(=O)OCC(=O)Nc2cc(C)on2)c1	1%	13	-6	-105	5.5
COC1CCCCC1NCCc1ccccc1 (stereo not given)	-7%	-12	-2	.	-2.8
C=CCn1c(SCCN2C(=O)c3ccccc3C2=O)nc2scc(-c3ccccc3)c2c1=O	-6%	-4	4	-33	-1.5
Cc1ccc(S(=O)(=O)N(C)C)cc1NC(=O)CCc1ccccc1	-3%	.	-3	.	2.1
O=C(NNc1cc(Cl)cc(Cl)c1)C1CCC1	46%	.	96	.	-1.1
CC1(C)C=Cc2cc3ccc(=O)oc3cc2O1	-8%	.	-7	.	-8.7

2 compounds picked at random from those above, as already listed:
SMILES	Mtb growth	Arbovirus inh	Mtb bLac sens	YopH inh	RecA splice inh	others
CCCCCn1c(Sc2nc3ccccc3s2)nc2c1c(=O)[nH]c(=O)n2C	-2%	-9	15	-29	0.4
COc1ccc(N2CCN(C(=O)CC34CC5CC(CC(C5)C3)C4)CC2)c([N+](=O)[O-])c1	19%	-5	7	-21	2.9

Of the compounds above, these contain a tert-butyl group.
SMILES	Mtb growth	Arbovirus inh	Mtb bLac sens	YopH inh	RecA splice inh	others
CC(C)(C)c1ccc(S(=O)(=O)NCCOCC(F)(F)C(F)F)cc1	38%	4	2	-2	-2.9
C=CCOC(=O)C1=C[C@H](C(C)(C)C)[C@@H](CCCO)[C@H](OCC)O1	3%	.	6	.	0.2

Assay outcomes (PubChem)
